# Cruzain inh noDet – cruzain (T. cruzi) inhibition without detergent | P25779 | purified cruzain, Z-FR-AMC fluorescence, no detergent | Potency, µM, for the others: max response, negative = inhibition, actives largely listed as inhibitors | hit rate 2.3% among 200,000 | AID 1476;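 further: plate controls were enzyme without inhibitor for no effect and buffer without enzyme for full effect; nearly all actives have a fitted effect of over 40% in size; top concentration of the series not given in the record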
# Target sequence (P25779 123-467 limits assumed): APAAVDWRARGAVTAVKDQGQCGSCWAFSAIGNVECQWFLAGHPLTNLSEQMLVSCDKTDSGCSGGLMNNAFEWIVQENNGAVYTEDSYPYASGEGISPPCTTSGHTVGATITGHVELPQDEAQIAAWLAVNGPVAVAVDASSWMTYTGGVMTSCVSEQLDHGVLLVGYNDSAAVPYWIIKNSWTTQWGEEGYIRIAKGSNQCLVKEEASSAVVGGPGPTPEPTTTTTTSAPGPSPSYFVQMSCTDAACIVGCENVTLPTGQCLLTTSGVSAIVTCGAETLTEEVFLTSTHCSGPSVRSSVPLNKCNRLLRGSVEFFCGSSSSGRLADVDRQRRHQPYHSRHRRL
#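 Detergent-free condition (0.00005% Triton X-100) in acetate buffer pH 5.5 with DTT. 1.5 nM enzyme and compound were pre-mixed 15 min, then 2 uM Z-FR-AMC substrate added; reaction progress from fluorescence change between first and third reads (60 s).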
# NS1 inh – blocks influenza NS1 protein function; S. cerevisiae slowed by influenza A NS1, growth recovery by OD600; Potency, µM (titrated, usually from 46.1 µM), inactives show top-dose activity, positive = more growth; hit rate 0.4% among 270,000; AID 2326; active means well fitted rising curve with a large enough effect; inconclusive means small, poorly fitted or top-dose-only effect; inactive means no such curve, though single readings can be large or run the other way; further: nearly all actives have a fitted effect of over 50% in size
#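 Compounds were scored for reversing the slow growth caused by influenza A NS1 in S. cerevisiae, measured by optical density at 600 nm. Assay medium contained 2% galactose at pH 6.0; NS1-free yeast of the same strain were the positive control.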
# LASV entry inh – inhibitors of Lassa virus binding or cell entry; AID 540256; hit rate 1.2% among 300,000; Lassa virus pseudotype entry inhibition, cell reporter; control for the full effect not named in the record; Potency, µM (highest dose often 37.9 µM), inactives show at the highest dose activity change, negative = inhibition, hits mostly inhibitors; active means well fitted inhibition curve with a large enough effect; inconclusive means small, poorly fitted or top-dose-only effect, or effect the other way; inactive means flat fitted curve, though single readings scatter; tested in HEK293 cells; further: on the % scale 0 is the no-effect control and ±100 the full control effect; nearly all actives have a fitted effect of over 50% in size; luciferase read-out
# RE007 growth inh – less growth of the S. pombe RE007 Vpr strain | S. pombe RE007 Vpr strain, BacTiter-Glo ATP luminescence, 24 h; control for the full effect not named in the record | AID 651644 | Potency, µM (doses to about 92.2 µM), for the others: top-dose activity change, negative = less growth | hit rate 0.21% among 360,000; active = well fitted falling curve with a large enough effect; inconclusive = small, poorly fitted or top-dose-only effect; inactive = no such curve, though single readings can be large or run the other way;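 further: on the % scale 0 is the no-effect control and ±100 the full control effect; nearly all actives have a fitted effect of over 50% in size; the assay follows cell death caused by Vpr and the record does not say whether a fall means rescue or toxicity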
#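 Fission yeast RE007 carrying one integrated HIV-1 vpr copy, seeded at OD 0.01 in PMG+AL medium with 23 nL pinned compound. Grown 24 h at 30 degrees; viability read by BacTiter-Glo luminescence after 5 min.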
# Cruzain Triton – cruzain (T. cruzi) inhibition with detergent; hit rate 0.43% among 200,000; purified cruzain, Z-FR-AMC fluorescence, 0.01% Triton; Potency, µM, for the others: max response, negative = inhibition, hits mostly inhibitors; AID 1478;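 further: plate controls were neutral wells for no effect and buffer without enzyme for full effect; nearly all actives have a fitted effect of over 40% in size; top concentration of the series not given in the record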
#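 Detergent-containing arm of a paired screen for aggregation-based inhibition: 0.01% Triton X-100 present. Cruzain at 1.5 nM cleaved 2 uM Z-FR-AMC at pH 5.5 with 5 mM DTT; AMC fluorescence gain over 60 s measured activity.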
# StopGo reporter – lowers the luciferase signal of an FMDV 2A StopGo reporter. human cells with a luciferase reporter of 2A StopGo recoding; control for the full effect not named in the record. Potency, µM (series often up to 57.9 µM), inactives show at the highest dose signal change, negative = less light. hit rate 1.2% among 410,000. AID 1159524; active = well fitted falling curve with a large enough effect; inconclusive = small, poorly fitted or top-dose-only effect; inactive = no such curve, though single readings can be large or run the other way; tested in HEK293T cells; further: on the % scale 0 is the no-effect control and ±100 the full control effect; nearly all actives have a fitted effect of over 45% in size; luciferase light after 4 h
# SARS PLpro yeast – SARS-CoV PLP inhibition in yeast; Potency, µM (titrated, usually from 32.9 µM), for inactives: at the top dose activity, positive = growth rescue; S. cerevisiae expressing SARS-CoV PLpro, growth rescue; control for the full effect not named in the record; hit rate 0.19% among 330,000; active means well fitted rising curve with a large enough effect; inconclusive means small, poorly fitted or top-dose-only effect; inactive means no such curve, though single readings can be large or run the other way; further: 0% is about no effect; nearly all actives have a fitted effect of over 55% in size; growth read by luminescence after 48 h
# Marburg entry inh – inhibitors of Marburg virus binding or cell entry. Marburg virus pseudotyped entry inhibition, cell reporter; control for the full effect not named in the record; about a third of the inactives were read at about 46 µM. Potency, µM (doses to about 37.8 µM), for the others: at the top dose activity change, negative = inhibition, most hits filed as inhibitors. hit rate 1.8% among 300,000; active = well fitted inhibition curve with a large enough effect; inconclusive = small, poorly fitted or top-dose-only effect, or effect the other way; inactive = flat fitted curve, though single readings scatter; tested in HEK293 cells; about a fifth of its hits are not listed in these tables; further: on the % scale 0 is the no-effect control and ±100 the full control effect; luciferase read-out
# * hit, by the source's call; ? = inconclusive; nt = not tested or not shown; & = joins results of further samples; [ ] = remark or other dose. Unless noted, the call rests on the fitted dose curve; in most records, active means well fitted curve in the direction sought with a large enough effect; inconclusive means small, poorly fitted or top-dose-only effect, or another doubt; inactive means no such curve, though single readings can be large; an effect the other way counts as inactive or inconclusive. Potency means the concentration at half of the fitted maximal effect.
SMILES,Cruzain inh noDet,NS1 inh,LASV entry inh,RE007 growth inh,Cruzain Triton,StopGo reporter,SARS PLpro yeast,Marburg entry inh
CC(=O)Nc1ccc(S(=O)(=O)NNC(=O)COc2cc(C)ccc2C(C)C)cc1,10%,9%,-6%,22%,-2.3%,-1%,nt,0%
CCC(CC)NC(=O)CSc1nnc(-c2ccc(OC)cc2)n1C(C)C,-5%,5%,-12%,4%,4.2%,-12%,nt,17%
Cc1noc(C)c1CSc1ncnc2sc3c(c12)CCC(C)C3 (stereo not given),1%,-3%,16%,nt,-3.2%,nt,-6%,0%
O=C(O)C(Cc1ccccc1)NS(=O)(=O)c1ccc2c(c1)OCCO2 (stereo not given),-9%,16%,?,9%,5.2%,23%,3%,0%[46.1 µM]
O=c1[nH]cc(O)c(=O)[nH]1,nt,-4%,nt,-7%,nt,-15%,5%,nt
CC(=O)Nc1ccc(C(=O)NNC(=O)c2cc([N+](=O)[O-])cc([N+](=O)[O-])c2)cc1,nt,3%,-1%,-2%,nt,-24%,0%,29%[46.1 µM]
COc1ccc(/C=C/C(=O)c2cc(Cl)ccc2O)c(OC)c1,nt,-1%,15%,12%,nt,11%,-1%,11%
O=S(=O)(Nc1ccccc1N1CCOCC1)c1ccc(F)c(Cl)c1,nt,-14%,13%[46.1 µM],-14%,nt,10%,-7%,?
OCc1cn(-c2ccccc2)nn1,nt,nt,-2%[46.1 µM],-18%,nt,2%,3%,-1%&-1%[46.1 µM]
Cc1noc(C)c1COc1ccccc1C(=O)N(C)Cc1ccco1,nt,nt,0%,2%,nt,-7%,2%,6%
COc1ccc(/C(N)=N/OC(=O)c2c(-c3ccccc3Cl)noc2C)cc1OC,nt,4%,?,-8%,nt,0%,-1%,?
Cc1sc2ncnc(OCC(=O)NC3CCS(=O)(=O)C3)c2c1C (stereo not given),nt,-5%,nt,-14%,nt,-4%,-1%,nt
CC(=O)Nc1ccc(C(=O)CSc2cc(C)c3cccc(C)c3n2)cc1,11%,9%,-22%,1%,-3.7%,-6%,-6%,?
OCCNc1nc(NCc2ccccc2)c2ccccc2n1,nt,7%,18%[46.1 µM],9%,nt,-19%,-7%,?
CCCCn1c(SCC(=O)OC)nc2c1c(=O)n(C)c(=O)n2C,0%,-7%,-17%,5%,0.0%,-7%,4%,12%
Cc1cc(Cl)ccc1Oc1ncc(-c2ccc(Cl)cc2)cn1,12%,-5%,?,39%,1.1%,-13%,2%,7%
O=C(Nc1cccc(C(=O)N2CCN(c3ccc(F)cc3)CC2)c1)c1ccccc1,nt,-5%,?,-10%,nt,-25%,-4%,?
CCOc1ccc(OCCC(=O)OCC(=O)NCc2ccccc2)cc1,nt,-14%,nt,2%,nt,-20%,2%,nt
CCOC(=O)c1c(NC(=O)/C=C/c2ccco2)sc(C)c1C,-4%,1%,7%,-22%,-0.3%,-5%,-24%,3%
C=C(C)CSc1nc2c(c(=O)[nH]c(=O)n2C)n1Cc1ccccc1,nt,2%,nt,17%,nt,-9%,2%,nt
CS(=O)(=O)N1CCN(c2ccc(Cl)cc2[N+](=O)[O-])CC1,6%,-3%,?,19%,-1.5%,-26%,9%,8%
COc1ccccc1NC(=O)C1CCCN(S(=O)(=O)c2cnc[nH]2)C1 (stereo not given),-3%,-9%,nt,-3%,1.1%,-20%,13%,nt
Cc1cc(C)n(C(=O)Cn2nc(C)c(Cl)c2C)n1,nt,2%,1%,4%,nt,-22%,-4%,3%
Cc1ccc(/C=c2\sc3n(c2=O)CN(c2ccc(Br)cc2)CN=3)o1,?,2%,14%,-2%,-5.5%,-3%,0%,1%&1%
O=C(c1cccs1)n1nc(-c2ccccc2)nc1NCc1ccc(F)cc1,-22%,-1%,1%,0%,2.7%,-4%,8%,-13%
CCNC(=S)N1C2CCC1CC(NC(=O)NC1CCCCC1)C2 (stereo not given),0%,3%,-1%,2%,1.4%,nt,4%,10%
Cc1[nH]n(-c2ccccc2)c(=O)c1N=Nc1ccccc1C(=O)N1CCCCC1,nt,1%,nt,8%,nt,-16%,0%,nt
CC(=O)NC(Cc1ccc(C)cc1)C(=O)NC1CCN(S(=O)(=O)c2ccccc2)CC1 (stereo not given),nt,1%,-21%[46.1 µM],6%,nt,23%,-1%,22%[46.1 µM]
COc1ccc(Cl)cc1S(=O)(=O)N(C)CC(=O)N1CCCC1,nt,5%,nt,5%,nt,-5%,13%,nt
CCN(CC)CP(=O)(c1ccccc1)c1ccccc1,-13%,-3%,15%,0%,5.7%,-4%,2%,9%
CC(CC(=O)N(C)C1CCCCC1)S(=O)(=O)c1ccc2c(c1)NC(=O)CO2 (stereo not given),nt,-2%,nt,2%,nt,-8%,-6%,nt
CCCOc1ccc(-c2nnc(-c3ccncc3)o2)cc1,4%,-5%,-1%,-2%,0.5%,5%,0%,5%
Cc1ccc(CNC(=O)C23CN(Cc4ccccc4)CC2C(c2ccc([N+](=O)[O-])cc2)=NO3)o1 (stereo not given),-11%,1%,nt,1%,-1.5%,-3%,-7%,0%
O=C1OCCC1Sc1nc2cc(Cl)ccc2n1Cc1ccccc1 (stereo not given),2%,10%,8%,8%,-12%,-11%,1%,5%[46.1 µM]
Cn1c(SC/C=C/c2ccccc2)nnc1-c1ccco1,-5%,-7%,15%,?,-5.3%,-7%,2%,6%
CC(C)Oc1ccc(C(=O)NCCCNC(=O)c2cccnc2)cc1,nt,-4%,-1%,1%,nt,-4%,-5%,12%[46.1 µM]
O=S(=O)(Nc1cccnc1)c1cccc(C(F)(F)F)c1,-9%,8%,?,-2%,-1.6%,18%,1%,-13%
O=C(NCC1CC1)c1ccc2c3n(nc2c1)-c1ccccc1CO3,nt,-73%,nt,-22%,nt,-28%,-9%,nt
CC(=O)c1ccc(S(=O)(=O)N(C)CC(=O)NCC2CCCCC2)cc1,nt,-2%,13%[46.1 µM],-3%,nt,18%,-1%,-10%[46.1 µM]
CCc1ccc(C(=O)c2ccccc2C(=O)O)s1,0%,-4%,-16%,57%,1.2%,-2%,6%,-11%[46.1 µM]
O=C(NCCCN1CCOCC1)c1cc(-c2ccc(F)cc2)on1,-1%,-3%,-4%,-4%,0.5%,29%,5%,-6%
CSc1nccc(NC(=O)c2cccc(Br)c2)n1,nt,-5%,-2%[46.1 µM],6%,nt,?,1%,?
CCN(CC)S(=O)(=O)c1cc(NC(=O)c2cc([N+](=O)[O-])ccc2N2CCOCC2)ccc1C,nt,7%,?,-4%,nt,-19%,4%,18µM*
O=C(NCc1ccc(Cl)cc1)c1ccc(CSCc2cccc(Cl)c2)o1,1%,nt,?,nt,-1.8%,?,nt,nt
Cc1cc(C)cc(-n2ccnc2SCC(=O)Nc2ccc3c(c2)OCCO3)c1,-5%,-38%,-11%,-1%,-1.1%,-3%,-11%,17%
COc1ccc(CCNC(=O)C2=CCN(S(=O)(=O)c3ccc(F)cc3)CC2)cc1OC,nt,-16%,nt,2%,nt,9%,0%,nt
O=C1NC(=S)NC1(c1ccccc1)c1ccccc1,nt,nt,5%,-18%,nt,-20%,nt,-5%
Cc1cc(-c2nnc(SCC(=O)NC3CC3)n2C(C)C)cs1,nt,8%,14%,-26%,nt,-9%,6%,24%
CCn1c(NC(=O)c2ccc(COc3ccc(C)cc3[N+](=O)[O-])o2)nc2ccccc21,?,0%,-12%,1%,-3.8%,-12%,3%,?
Cc1cccc2c(=O)c(C(=O)NCCc3ccccc3)c[nH]c12,nt,6%,12%,6%,nt,5%,3%,-20%
O=C1c2ccccc2-c2c1c1ccccc1c(=O)n2-c1ccccc1,nt,nt,2%,-21%,nt,-17%,nt,-14%
CCOC(=O)N1CCN(C(=O)c2cccn3c(=O)c4cc(Cl)ccc4nc23)CC1,3%,-7%,12%,7%,-5.4%,5%,9%,-9%
O=C(Nc1cccc(Cl)c1)c1ccc(NCC2CCCO2)c([N+](=O)[O-])c1 (stereo not given),-29%,1%,nt,9%,-0.9%,-27%,4%,nt
C=CCN1C(=O)CSc2ccc(C(=O)N3CCC4(CC3)OCCO4)cc21,0%,4%,-2%,17%,2.1%,23%,?,14%
COc1cccc(/C=N/NC(=O)c2ccc3nc[nH]c3c2)c1O,nt,-1%,nt,6%,nt,9%,0%,nt
CCOc1ccc(/C=C(\C#N)C(=O)Nc2sc3c(c2C(=O)OC)C(C(=O)OC)CC3)cc1OC (stereo not given),3%,nt,1%[46.1 µM],nt,-2.1%,-15%,nt,nt
C[C@H]1[C@H](C)CC[C@]2(C(=O)O)CC[C@]3(C)C(=CC[C@@H]4[C@@]5(C)C[C@@H](O)[C@H](O)C(C)(C)[C@@H]5CC[C@]43C)[C@H]12,-23%,14%,1%,-11%,5.1%,0%,7%,7%
COc1ccc(-c2sc3ccccc3c2C#CC2(O)CCCCC2)cc1,nt,-40%,nt,-12%,nt,-16%,4%,nt
COc1ccc(CCNC(=S)N(C)C)cc1OC,nt,2%,-15%[46.1 µM],2%,nt,-3%,0%,?
O=C(CCCCCCC(=O)NCc1ccccc1)NCc1ccccc1,nt,13%,?,2%,nt,6%,12%,9%

# (continued)
SMILES,Cruzain inh noDet,NS1 inh,LASV entry inh,RE007 growth inh,Cruzain Triton,StopGo reporter,SARS PLpro yeast,Marburg entry inh
O=C(NC1CCCCC1)N1CCC(n2c(=O)[nH]c3ccccc32)CC1,-7%,-5%,nt,1%,3.8%,-30%,-1%,nt
CCOc1ccc(-c2nnc3ccc(SCc4ccc(C(=O)OC)o4)nn23)cc1,?,-58%,-6%,-2%,-23%,-15%,-22%,?
Cc1ccoc1C(=O)NCCNc1ccc(Cl)cc1[N+](=O)[O-],-8%,-44%,5%,-24%,-11%,-27%,-45%,?
O=C(O)C1CCCCC1C(=O)Nc1ccc(F)c(F)c1 (stereo not given),0%,1%,1%,10%,-1.2%,-11%,2%,?
CCOC(=O)CCCCC(=O)c1[nH]c(=O)[nH]c1CN1CCOCC1,4%,-6%,3%,-5%,-1.3%,nt,-2%,-25%
CC(C)(C)c1ccc(C(=O)NCC(=O)OCC(=O)Nc2ccc3c(c2)OCCO3)cc1,3%,-12%,14%,18%,-5.7%,0%,-3%,7%

# Source: PubChem (National Center for Advancing Translational Sciences (NCATS))
